GALR2 ag: activates the human galanin receptor 2. activation, %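 (tested at 5 µM)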. GALR2-expressing cells, agonist activation read-out. hit rate 0.48% among 140,000. O43603. AID 803;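 active = above mean plus 3 SD of all compounds, about 5% in these data, not always enough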;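 note: 0% = vehicle buffer wells and 100% = reference agonist at full effect; tested in CHO reporter cells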
Target sequence (O43603 whole entry, looked up): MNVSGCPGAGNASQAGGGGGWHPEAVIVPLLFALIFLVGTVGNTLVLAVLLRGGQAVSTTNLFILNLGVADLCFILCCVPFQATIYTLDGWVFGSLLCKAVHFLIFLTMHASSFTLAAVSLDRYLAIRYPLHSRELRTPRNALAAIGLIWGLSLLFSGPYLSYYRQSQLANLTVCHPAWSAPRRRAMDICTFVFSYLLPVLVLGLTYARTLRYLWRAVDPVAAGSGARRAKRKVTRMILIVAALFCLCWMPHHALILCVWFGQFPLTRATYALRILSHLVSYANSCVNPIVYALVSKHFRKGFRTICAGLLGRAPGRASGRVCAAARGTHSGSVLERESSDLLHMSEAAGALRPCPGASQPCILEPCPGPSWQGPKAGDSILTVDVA
HSV augment: increases HSV replication in cells; HSV replication augmentation in cells, fold increase; maximum fold increase; hit rate 0.005% among 220,000;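 active = peak rise of 1.5-fold or more in the series; inconclusive = self-fluorescent or not available for retest; tested in PC3 cells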;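 note: first round at 10 µM; read as green reporter fluorescence; hits show the peak of a series up to 25 µM; 1 = signal of infected wells without compound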
PKD1 inh: PKD1 (human) kinase inhibition; Q15139; PKD1 kinase fluorescence polarization assay; inhibition, %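 (about 10 µM by stock and volumes)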; hit rate 0.056% among 200,000; AID 797;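 active = inhibition of 50% or more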;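 note: controls were vehicle for no effect and a reference inhibitor for full effect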
Insulin prom inh: TRM-6 insulin promoter activity inhibition. TRM-6 cells (human fetal islet line), insulin promoter-eGFP reporter, imaging; reporter expression induced with tamoxifen. inhibition, % at 2 µM. hit rate 0.9% among 130,000. AID 1273;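 active = inhibition above the mean plus 3 SD, with well images judged a real hit on visual review, cut at about 60% in these data, passing the limit was not always enough; inconclusive = inhibition over the cutoff but images rejected on review; inactive = inhibition not above the cutoff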
RGS16-Gao: modulates binding between human RGS16 and Galphao; O15492+P09471; AID 1441; binding response (% of control), % at 10 µM; hit rate 0.38% among 220,000; bead-based flow cytometry RGS16-Galphao binding, fluorescence; actives lie on both sides;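 active = below 25% or above 175%, edge rows of some plates excepted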;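 note: Galphao activated by GDP with aluminum fluoride before binding; 100% = wells without compound and 0% = beads without RGS; some results beyond the cut were filed as inactive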
Target sequence (O15492 whole entry, looked up): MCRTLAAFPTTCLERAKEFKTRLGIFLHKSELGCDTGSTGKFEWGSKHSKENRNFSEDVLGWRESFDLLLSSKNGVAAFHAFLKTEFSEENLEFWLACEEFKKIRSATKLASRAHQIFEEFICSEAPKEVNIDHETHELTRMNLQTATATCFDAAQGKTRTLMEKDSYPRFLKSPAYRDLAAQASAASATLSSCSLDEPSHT
Target sequence (P09471 whole entry, looked up): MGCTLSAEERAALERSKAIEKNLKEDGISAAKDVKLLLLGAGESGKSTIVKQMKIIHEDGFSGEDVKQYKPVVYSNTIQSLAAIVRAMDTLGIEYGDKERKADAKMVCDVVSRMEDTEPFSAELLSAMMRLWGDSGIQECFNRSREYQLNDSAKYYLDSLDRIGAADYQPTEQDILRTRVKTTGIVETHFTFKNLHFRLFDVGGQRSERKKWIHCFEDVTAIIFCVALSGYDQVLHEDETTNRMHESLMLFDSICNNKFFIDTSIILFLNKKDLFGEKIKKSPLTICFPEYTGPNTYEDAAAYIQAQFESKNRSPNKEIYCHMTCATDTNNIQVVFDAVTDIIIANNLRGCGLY
Insulin prom inh cell count: recorded beside Insulin prom inh, whose call it bears; normalized cell count, %; measured here: cell count, toxicity; reference of the scale not given here;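 cells exposed to compound for 48 h; stained nuclei by imaging scaled within each plate; lower means fewer cells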
HSV augment primary fold: recorded beside HSV augment, whose call it bears; fold increase; compound at 10 µM; measured here: primary screen fold increase 10 uM; tested in PC3 cells;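 GFP signal in the first replicate; 1 = infected wells without compound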
The depositor's hits bear a star; i = inactive; ? = inconclusive; nt = not tested or not shown.

# | smiles | GALR2 ag | HSV augment | HSV augment primary fold | PKD1 inh
1 | Cc1cccc(C(=O)N2CCC(Cc3ccccc3)CC2)c1[N+](=O)[O-] | 0.3 | i | 1 | -5
2 | Cc1ccc(C(=O)NNC(=O)c2cccc(S(=O)(=O)N3CCN(c4ccccc4)CC3)c2)cc1 | -0.1 | i | 0.89 | -4
3 | CC(OC(=O)CNC(=O)C12CC3CC(CC(C3)C1)C2)C(=O)Nc1ccc(S(N)(=O)=O)cc1 (configuration not stated) | nt | i | 0.92 | 0
4 | N#Cc1cnn(-c2ncnc3sc4c(c23)CCCC4)c1N | -1.0 | i | 0.84 | 4
5 | O=C(C[n+]1cccc(CNC(=O)c2ccc(OC(F)F)cc2)c1)Nc1cccc(C(F)(F)F)c1 | -0.5 | i | 0.58 | -8
6 | CC(C)(C)N(NC(=O)Nc1ccc(Cl)c(Cl)c1)C(=O)c1ccccc1 | -2.4 | i | 0.97 | -8
7 | COc1ccc(S(=O)(=O)N(C)C)cc1NS(=O)(=O)c1ccc(F)c(F)c1F | -1.1 | i | 0.96 | 1
8 | CCN(CC)S(=O)(=O)c1ccc(C(=O)NCCc2cc3c(OC)ccc(OC)c3[nH]c2=O)cc1 | -3.0 | nt | nt | -5

# | Insulin prom inh | Insulin prom inh cell count | RGS16-Gao
1 | 22 | 135 | 104
2 | -83 | 114 | 106
3 | 32 | 75 | 101
4 | nt | nt | 98
5 | -36 | 91 | 107
6 | 23 | 94 | 100
7 | -33 | 114 | 91
8 | -64 | 107 | 105

Additional results follow.
# | smiles | GALR2 ag | HSV augment | HSV augment primary fold | PKD1 inh
9 | O=C(COC(=O)Cc1ccc(Cl)cc1Cl)Nc1ccccc1OC(F)F | 0.4 | i | 0.97 | -5
10 | Fc1ccc(-c2ccnc3nc(-n4cccc4)nn23)cc1 | -1.7 | i | 0.86 | -2
11 | O=C(NCc1cccnc1)C1CC2c3ccccc3C1c1ccccc12 (configuration not stated) | -1.4 | i | 1 | -1
12 | CCC1(C)CC(CCN(Cc2ccco2)C(C)=O)(c2ccccc2)CCO1 (configuration not stated) | nt | i | 0.98 | 5
13 | Fc1cccc(CSc2nc3ncc(Cl)cc3[nH]2)c1 | nt | i | 0.96 | nt
14 | CCN(CC)S(=O)(=O)c1cc(NC(=O)Cn2ncc(Cl)c(Cl)c2=O)ccc1C | nt | i | 0.58 | nt
15 | O=C(OCc1cccc([N+](=O)[O-])c1)c1cccnc1 | nt | i | 0.88 | -4
16 | c1ccc2c(c1)NC1(CCCCC1)n1c-2nc2ccccc21 | 0.4 | i | 0.91 | 3

# | Insulin prom inh | Insulin prom inh cell count | RGS16-Gao
9 | -20 | 80 | 102
10 | -22 | 102 | 98
11 | -30 | 137 | 31
12 | nt | nt | 101
13 | nt | nt | 96
14 | nt | nt | 96
15 | 29 | 124 | 122
16 | nt | nt | 99

Two records drawn at random from the list so far:
# | smiles | GALR2 ag | HSV augment | HSV augment primary fold | PKD1 inh
15 | O=C(OCc1cccc([N+](=O)[O-])c1)c1cccnc1 | nt | i | 0.88 | -4
10 | Fc1ccc(-c2ccnc3nc(-n4cccc4)nn23)cc1 | -1.7 | i | 0.86 | -2

# | Insulin prom inh | Insulin prom inh cell count | RGS16-Gao
15 | 29 | 124 | 122
10 | -22 | 102 | 98

More records follow:
# | smiles | GALR2 ag | HSV augment | HSV augment primary fold | PKD1 inh
17 | Cc1ccc(Nc2nc(=O)[nH]nc2C)cc1 | -4.1 | i | 0.89 | 1
18 | CCCOc1ccc(N/C=C/C(=O)C(C)(C)C)cc1 | nt | i | 1.1 | -3
19 | CCN(CC)S(=O)(=O)c1ccc(N2C(=O)Nc3ccccc3N2O)cc1 | -0.7 | i | 0.91 | 2
20 | CCOC(=O)C(C(=O)Nc1cccc(C)c1)C1CCCCC1 (configuration not stated) | 0.7 | i | 0.76 | -7
21 | COc1ccccc1NC(=O)C1=C(C)NC(SCC(=O)c2ccccc2)=C(C#N)C1c1ccco1 (configuration not stated) | -2.9 | ? | nt | -12
22 | COC1=C(Nc2ccc(C)cc2)C(=O)c2ccccc2C1=O | 1.0 | i | 1 | 2
23 | Cc1cc(=O)n(C)c(=O)n1CCCNc1ccccc1 | -1.4 | i | 1 | -4
24 | O=C(Cn1nc(Cc2cccnc2)c2ccccc2c1=O)Nc1cc(F)ccc1F | nt | i | 0.94 | nt

# | Insulin prom inh | Insulin prom inh cell count | RGS16-Gao
17 | nt | nt | 105
18 | nt | nt | 98
19 | 31 | 56 | 66
20 | -42 | 74 | 109
21 | -13 | 96 | 104
22 | -16 | 104 | 96
23 | -38 | 139 | 38
24 | nt | nt | 95

Additional compounds follow.
# | smiles | GALR2 ag | HSV augment | HSV augment primary fold | PKD1 inh
25 | CCOc1ccc(NC(=O)C2CCCN(S(=O)(=O)c3cccc4nsnc34)C2)cc1 (configuration not stated) | -2.4 | i | 0.96 | 0
26 | Cc1ccc(Nc2nc3ccccc3c(=O)s2)cc1C | -0.4 | nt | nt | -6
27 | O=C(CCl)N=c1sccn1Cc1cccc2ccccc12 | nt | i | 0.61 | 3
28 | NS(=O)(=O)c1cc(C(=O)NCCc2ccccn2)ccc1Cl | nt | i | 0.93 | nt
29 | COc1ccc(CNC(=O)COC(=O)CC2CC3CCC2C3)cc1OC (configuration not stated) | -1.9 | i | 1.1 | -6
30 | O=c1c2ccccc2nc(COc2ccccc2)n1/N=C/c1ccc(O)c(O)c1 | nt | i | 0.81 | nt
31 | Cc1ccc2[nH]c(=O)c(CN(CCCN(C)C)C(=S)NCCc3ccccc3)cc2c1 | nt | i | 0.65 | 1
32 | COc1ccc(/C=N/NC(=O)c2nc(-c3ccccc3)n(-c3ccccc3)n2)cc1 | 0.1 | i | 1 | -3

# | Insulin prom inh | Insulin prom inh cell count | RGS16-Gao
25 | 27 | 107 | 104
26 | 8 | 56 | 97
27 | nt | nt | 113
28 | nt | nt | 101
29 | -22 | 92 | 92
30 | nt | nt | 90
31 | nt | nt | 96
32 | -17 | 117 | 98

The results go on:
# | smiles | GALR2 ag | HSV augment | HSV augment primary fold | PKD1 inh
33 | COc1ccc(-c2noc(CCCC(=O)N3CCOCC3)n2)cc1 | nt | i | 1.1 | 0
34 | COc1ccc(-c2ccc(CCC(=O)O)o2)cc1 | nt | i | 0.89 | -1
35 | CCC(=O)Oc1ccc(C(=O)Nc2ccccc2C(=O)NCC(C)C)cc1 | nt | i | 0.83 | 1
36 | COc1cccc(NC(=O)c2ccc(NC(=O)C(C)(C)C)cc2)c1 | -0.4 | nt | nt | 11
37 | O=C(COC(=O)c1cccc2ccccc12)Nc1ncc(C(F)(F)F)cc1Cl | -1.8 | i | 0.7 | -2
38 | COc1ccc(NS(=O)(=O)c2cc(NC(=O)[C@@H](NC(N)=O)C(C)C)ccc2C)cc1 | nt | i | 0.53 | nt
39 | CCOC(=O)C1=C(C)N(c2ccccc2)C(=O)C1CC(=O)O (configuration not stated) | -2.2 | i | 0.96 | 3
40 | CC(=O)CCc1oc2ccc(NC(C)=O)cc2c1-c1ccc(C)o1 | -0.1 | i | 1 | -5

# | Insulin prom inh | Insulin prom inh cell count | RGS16-Gao
33 | nt | nt | 98
34 | nt | nt | 104
35 | nt | nt | 102
36 | -133 | 90 | 103
37 | -17 | 106 | 101
38 | nt | nt | 98
39 | nt | nt | 103
40 | 18 | 74 | 112

Following part:
# | smiles | GALR2 ag | HSV augment | HSV augment primary fold | PKD1 inh
41 | COc1ccc(C(=O)C2CCCN(C(=O)CCC3=NNC(=O)CC3)C2)c(C)c1 (configuration not stated) | nt | i | 0.81 | -2
42 | O=C(NCc1cccnc1)c1ccc(-c2cc3ccccc3oc2=O)cc1 | nt | i | 0.74 | -1
43 | Cc1ccc(NC(=S)N(C)Cc2cn(C)c3ccccc23)cc1 | -1.9 | i | 0.74 | -6
44 | COc1ccc(S(=O)(=O)Nc2cc(Cl)ccc2OC)cc1 | 0.0 | i | 0.6 | 0
45 | CC(NS(=O)(=O)c1ccc(CCC(=O)N2CCN(C)CC2)cc1)c1ccccc1 (configuration not stated) | -1.4 | i | 0.97 | -12
46 | CCc1cc2ccccc2nc1SCC(=O)Nc1cc(OC)c(OC)cc1C(=O)O | -1.3 | nt | nt | -6
47 | CCC(C)C(=O)Nc1cc(Cl)ccc1C(=O)O (configuration not stated) | nt | i | 0.95 | -5
48 | CN(C)C(=S)Nc1ccc(Br)cc1Cl | nt | i | 0.92 | nt

# | Insulin prom inh | Insulin prom inh cell count | RGS16-Gao
41 | -27 | 102 | 105
42 | nt | nt | 101
43 | 24 | 96 | 105
44 | -292 | 17 | 102
45 | 12 | 160 | 101
46 | 31 | 98 | 129
47 | nt | nt | 101
48 | nt | nt | 103

Some of the entries above, set out differently.
no. | Molecule | GALR2 ag | HSV augment | HSV augment primary fold | PKD1 inh | Insulin prom inh | Insulin prom inh cell count | RGS16-Gao
47 | CCC(C)C(=O)Nc1cc(Cl)ccc1C(=O)O (configuration not stated) | nt | i | 0.95 | -5 | nt | nt | 101
48 | CN(C)C(=S)Nc1ccc(Br)cc1Cl | nt | i | 0.92 | nt | nt | nt | 103

Remaining list, next part.
# | smiles | GALR2 ag | HSV augment | HSV augment primary fold | PKD1 inh
49 | CCCN(CC1CC1)c1nc(N)c2c(N)nc(OC)cc2c1C#N | -0.3 | i | 0.77 | -7
50 | CCN(C(=O)COC(=O)c1ccccc1Nc1cccc(C)c1C)C1CCS(=O)(=O)C1 (configuration not stated) | -0.1 | i | 1 | 2
51 | CN(C)C(=O)CSc1ncnc2scc(-c3ccccc3)c12 | nt | i | 0.87 | -6
52 | C/C(=N\NC(=O)c1c(Cl)cnn1C)c1cccc(NC(=O)C(C)C)c1 | -1.0 | i | 0.95 | 4
53 | O=C(O)CCC(NS(=O)(=O)c1ccc(N2CCCC2=O)cc1)C(=O)O (configuration not stated) | -0.7 | i | 0.93 | -3
54 | O=S(=O)(NCCCO)c1ccc2c(c1)Cc1cc(S(=O)(=O)NCCCO)ccc1-2 | -0.1 | i | 0.83 | -7
55 | CCCCCCOC(=O)Cc1c(C)nc(N)[nH]c1=O | nt | i | 0.95 | nt
56 | Cc1occc1C(=O)NNC(=O)C(c1ccccc1)c1ccccc1 | -1.6 | i | 1 | 1

# | Insulin prom inh | Insulin prom inh cell count | RGS16-Gao
49 | nt | nt | 99
50 | 4 | 76 | 84
51 | 0 | 37 | 107
52 | -46 | 135 | 46
53 | nt | nt | 76
54 | -64 | 104 | 100
55 | nt | nt | 99
56 | nt | nt | 93

Continuation.
# | smiles | GALR2 ag | HSV augment | HSV augment primary fold | PKD1 inh
57 | O=C(Nc1ccccc1)NC(Cc1ccc(O)cc1)C(=O)O (configuration not stated) | nt | i | 0.96 | 1
58 | O=C(CN1C(=O)C2C3C=CC(C3)C2C1=O)Nc1nncs1 (configuration not stated) | nt | i | 0.86 | -2
59 | COc1cccc(/C=N\n2c(C)nnc2C)c1OC | -2.1 | i | 0.96 | -7
60 | COc1ccc(-c2noc(CSc3nc4ccccc4c(=O)n3-c3ccccc3)n2)cc1OC | -2.1 | i | 0.89 | 2
61 | Cc1ccnc(NC(=O)CCC(=O)N(CC(=O)NCC2CCCO2)Cc2ccc(F)cc2)c1 (configuration not stated) | -1.8 | i | 0.84 | 11
62 | CCC1(c2ccc(Cl)cc2)NC(=S)N(c2ccc(C)cc2)N1 (configuration not stated) | -0.7 | i | 0.98 | -11
63 | CCn1cc(S(=O)(=O)CC(=O)NC2CCCCC2)c2ccccc21 | -1.4 | i | 0.99 | -7
64 | O=C(CCC(=O)NNC(=O)Nc1cccc(Cl)c1)NCc1ccccc1 | nt | i | 0.92 | 6

# | Insulin prom inh | Insulin prom inh cell count | RGS16-Gao
57 | nt | nt | 96
58 | nt | nt | 100
59 | nt | nt | 107
60 | 50 | 121 | 105
61 | nt | nt | 111
62 | 52 | 117 | 98
63 | nt | nt | 100
64 | nt | nt | 94

Carrying on:
# | smiles | GALR2 ag | HSV augment | HSV augment primary fold | PKD1 inh
65 | CC1(C)Cc2c(c(-c3ccco3)nc3sc4c(NCCN5CCOCC5)ncnc4c23)CO1 | 1.6 | i | 1.2 | 3
66 | c1cncc(-c2nn3c(Cn4nnc5ccccc54)nnc3s2)c1 | -1.1 | i | 1 | 9
67 | CSc1nncn1/N=C/c1cc(Cl)ccc1F | -1.2 | i | 0.84 | 6
68 | CC(NC(=O)c1ccncc1)C(C)(C)C (configuration not stated) | -0.8 | i | 1.1 | -14
69 | Cc1c(NC(=O)CN2CCN(c3ccccc3)CC2)c(=O)n(-c2ccccc2)n1C | -3.4 | i | 0.88 | -5
70 | COc1ccc(Br)cc1/C=N/NC(=O)c1cccc(S(=O)(=O)N2CCOCC2)c1 | nt | i | 0.98 | -5

# | Insulin prom inh | Insulin prom inh cell count | RGS16-Gao
65 | 35 | 55 | 189
66 | nt | nt | 81
67 | nt | nt | 118
68 | 17 | 106 | 100
69 | 25 | 239 | 118
70 | nt | nt | 110

Source: PubChem BioAssay (several laboratories)
